Bioassay records (PubChem)
KCNQ2 pot – potentiators of rat KCNQ2 potassium channel. 0.54% of 310,000 active. B-score at 10 µM. Potassium voltage-gated channel subfamily KQT member 2 (Rattus norvegicus), O88943. AID 2239, 2010. CHO-K1 KCNQ2, FluxOR thallium flux fluorescence; active compounds read high;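 active = fluorescence ratio B-score at least 3 SD of library B-scores, with initial fluorescence B-score within 3 SD, cut at about 5.3 in these data; same plate scores as AID 2156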;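 note: B-score of peak minus minimum over baseline fluorescence ratio after K+ and Tl+ stimulus; positive B-score means potentiation of KCNQ2 with more thallium influx and brighter signal; only the inactives scoring about 0 or higher are listed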
Target sequence (O88943 whole entry, looked up): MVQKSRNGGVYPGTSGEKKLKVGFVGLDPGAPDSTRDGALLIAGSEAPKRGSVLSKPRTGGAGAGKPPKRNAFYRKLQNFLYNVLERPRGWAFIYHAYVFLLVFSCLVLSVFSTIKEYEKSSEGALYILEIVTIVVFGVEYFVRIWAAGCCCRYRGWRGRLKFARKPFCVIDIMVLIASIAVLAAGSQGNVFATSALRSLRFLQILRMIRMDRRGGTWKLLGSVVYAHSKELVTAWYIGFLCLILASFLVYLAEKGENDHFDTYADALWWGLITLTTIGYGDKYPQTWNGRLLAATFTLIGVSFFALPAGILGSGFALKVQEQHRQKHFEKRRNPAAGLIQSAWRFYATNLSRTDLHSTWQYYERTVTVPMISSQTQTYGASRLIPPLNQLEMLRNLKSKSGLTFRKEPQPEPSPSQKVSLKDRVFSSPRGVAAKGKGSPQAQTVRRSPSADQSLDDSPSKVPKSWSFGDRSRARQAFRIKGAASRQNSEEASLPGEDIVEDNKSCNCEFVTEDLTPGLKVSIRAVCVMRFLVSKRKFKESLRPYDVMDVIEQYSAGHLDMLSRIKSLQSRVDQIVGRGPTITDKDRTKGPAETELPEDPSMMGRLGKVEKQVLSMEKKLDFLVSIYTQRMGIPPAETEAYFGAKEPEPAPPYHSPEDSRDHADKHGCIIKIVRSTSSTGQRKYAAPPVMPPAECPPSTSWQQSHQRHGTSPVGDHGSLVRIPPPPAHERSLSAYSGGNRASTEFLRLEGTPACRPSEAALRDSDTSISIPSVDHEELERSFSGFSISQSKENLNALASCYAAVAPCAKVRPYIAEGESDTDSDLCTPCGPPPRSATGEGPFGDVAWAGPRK
KCNQ2 pot baseline – recorded beside KCNQ2 pot, whose call it bears; B-score; compound at 10 µM; measured here: initial fluorescence intensity artifact check;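 brightness before thallium and not channel activity; 0 = typical well and far values either way flag optical interference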
Numbers without * were called inactive. An excerpt; count on the stated rates, not on these rows.

entry	KCNQ2 pot	KCNQ2 pot baseline	mol
1	1.2	-0.79	N#CC1=C2SCCN2C(=O)C(C#N)C12CCCCC2 (configuration not stated)
2	0.86	-1	Cc1nc2ccccc2c(=O)n1-c1ccc(NS(=O)(=O)c2ccc(F)cc2F)cc1
3	0.42	-0.41	COc1ccc(Nc2cc(Nc3ccccc3)ncn2)cc1
4	0.3	0.43	Cc1cc(NC(=O)CSc2nc(Cc3ccc(O)cc3)c(C)[nH]2)no1
5	0.03	-0.28	CC(=O)Nc1ccc(S(=O)(=O)NCCCc2ccccc2)cc1
6	0.91	1.1	Cc1ccccc1N1CCN(C(=O)CN2C(=O)c3ccccc3C2=O)CC1
7	0.58	-1.4	Cc1cc(C)cc(-n2c(SCC(=O)NCc3ccc4c(c3)OCO4)nc3ccccc3c2=O)c1
8	1.1	-0.36	Clc1cccc(Cl)c1NC1=NCCC1
9	0.02	-0.02	CC(=O)N(C(C)=O)c1cccc2c(N(C(C)=O)C(C)=O)cccc12
10	0.52	0.38	COC(=O)C1=CN(Cc2ccc(OC)cc2)C=C(C(=O)OC)C1c1cc(OC)c(OC)c(OC)c1

entry	KCNQ2 pot	KCNQ2 pot baseline	mol
11	0.28	2	COc1cc(NC2c3ncccc3C(=O)N2Cc2ccco2)cc(OC)c1 (configuration not stated)
12	1.5	-2.1	COc1ccc2cc(CCN3C(=O)c4ccccc4C3=O)c(=O)[nH]c2c1
13	0.38	-0.13	CC(C)Oc1ccc(C(=O)Nc2ccc(Cl)c(S(=O)(=O)Nc3ccc(Cl)cc3)c2)cc1
14	0.87	-0.75	OCC1(CCc2ccccc2)CCN(C/C=C/c2ccccc2)CC1
15	0.14	-0.03	Cc1cccc(NC(=O)c2cnc3sccn3c2=O)n1
16	0.39	0.25	O=C1c2ccccc2C(=O)N1CNc1ccccc1
17	0.29	-2.1	CCOC(=O)Cn1c(=O)oc2cc(S(=O)(=O)N3CCC(N4CCCCC4)CC3)ccc21
18	1.1	0.49	COc1cc(CO)c(OC)c([N+](=O)[O-])c1
19	0.85	0.49	Clc1ccc(C2=NCCN2)cc1
20	0.05	-1.6	O=C(NC(N1CCCC1)C(Cl)(Cl)Cl)c1ccccc1 (configuration not stated)

entry	KCNQ2 pot	KCNQ2 pot baseline	mol
21	0.66	0.01	CCn1nc(NC(=O)Cc2ccc(OC)cc2)c2cc3cc(C)ccc3nc21
22	0.22	0.36	O=C(C[n+]1cc(-c2ccc(F)cc2)n2c1CCC2)Nc1nc(-c2ccccc2)cs1
23	1.5	-1.9	CN1CCN(c2ccc(NC(=O)Cc3ccccc3)cc2)CC1
24	0.29	1	COc1ccccc1N1CCN(C2CCN(C3CCC(c4ccccc4)CC3)CC2)CC1 (configuration not stated)
25	0.88	-0.28	CC(=O)c1ccc2c(c1)Nc1ccccc1S2
26	0.23	-2.3	Cc1ccc(N2CC(C(N)=O)CC2=O)cc1C (configuration not stated)
27	0.17	-2.1	Cc1nn(C)cc1S(=O)(=O)NCc1ccccc1Cl
28	0.13	-1.7	Cc1ccc(C)c(S(=O)(=O)N2CCN(C(=O)Cn3cnc4c3c(=O)n(C)c(=O)n4C)CC2)c1
29	0.92	-1.4	Cc1nn(-c2ccccc2C(F)(F)F)c(=O)c2noc(C)c12
30	1.3	-1.8	CCOc1ccc(NC(=O)NCCCn2c(C)nc3cc(C)c(C)cc32)cc1

entry	KCNQ2 pot	KCNQ2 pot baseline	mol
31	1.1	-0.15	CCNC(=O)NC(=O)CSc1ccccc1F
32	0.87	-1.4	c1ccc(CN2CCC(=NNc3nc4ccccc4[nH]3)CC2)cc1
33	0.08	-0.95	Cc1ccc(CN(C(=O)c2cccs2)C2CCS(=O)(=O)C2)cc1 (configuration not stated)
34	0.11	-1.5	O=S(=O)(c1cnc(Cl)c(Br)c1)N1CCc2ccccc21
35	0.14	-1.3	CCc1ccc(N(CC(=O)NC2CC2)S(=O)(=O)c2ccc(C)cc2)cc1
36	2.1	0.45	COCCn1ccc2c(OCC(=O)Nc3cccc(NC(C)=O)c3)cccc2c1=O
37	0.21	-0.06	N#C/C(=C\c1ccc(-c2cccc([N+](=O)[O-])c2)o1)C(=O)NCCN1CCOCC1
38	0.86	1.3	CN(C)N1C(N)=C(C#N)C(c2ccccc2)C2=C1CC(C)(C)CC2=O (configuration not stated)
39	1.8	-0.16	Oc1ccc2ccccc2c1CN1CCN(C/C=C/c2ccccc2)CC1
40	0.44	1.4	Cc1sc(NC(=S)NC(=O)c2cccs2)nc1-c1ccc(CC(C)C)cc1

entry	KCNQ2 pot	KCNQ2 pot baseline	mol
41	0.81	-0.12	COc1ccccc1NS(=O)(=O)c1cccc(N=C2N=C(N)c3ccccc32)c1
42	0.84	1.4	CCCCCc1c(C)nc(N2CCc3ccccc32)[nH]c1=O
43	1.1	-0.14	COc1ccc(N(C2=NCCCS2)S(=O)(=O)c2ccc(C(C)(C)C)cc2)cc1
44	0.79	-0.06	COc1ccc2c(c1)C1NC(=S)NC(C)(O2)C1C(=O)Nc1ccc(Cl)cc1 (configuration not stated)
45	0.53	-0.71	O=C(Cc1ccc(Cl)cc1)NNc1c(F)c(F)cc(F)c1F
46	0.46	-0.03	COc1ccc(C(=O)N(C)CC2CCN(CCc3cccc(C(F)(F)F)c3)CC2)cc1C
47	0.01	-0.23	O=C(Cc1ccccc1)NNS(=O)(=O)c1ccccc1[N+](=O)[O-]
48	0.01	-2.1	Cc1ccc(N2C(=O)SC(N(CC(=O)O)c3ccc(C)cc3)C2=O)cc1 (configuration not stated)
49	1.2	0.38	CCOC(=O)N/N=C(\CCC(=O)O)c1cccs1
50	0.1	1.2	O=[N+]([O-])c1cc(/C=N/N2CCN(c3ccccc3)CC2)ccc1Cl

entry	KCNQ2 pot	KCNQ2 pot baseline	mol
51	1.3	-0.58	Cc1ccc(C)c(NC(=O)C2CCCN2S(=O)(=O)c2ccc3c(c2)n(C)c(=O)c(=O)n3C)c1 (configuration not stated)
52	0.54	-0.99	COc1ccc2ccccc2c1/C=N\n1c(C)cc(C)c(C(N)=O)c1=O
53	0.74	-0.4	Cc1cc(C)nc(NC(=O)C(C)C)n1
54	0.82	1.8	CCOC(=O)N1CCN(CC(O)COc2ccc(-c3ccccc3)cc2)CC1 (configuration not stated)
55	0.24	-1.3	COc1cc(S(=O)(=O)N2CCN(C(=O)c3ccccc3)CC2)c(OC)cc1Br
56	0.12	0.82	COc1ccccc1CNC(=O)C12CC3CC(CC(C3)C1)C2
57	0.21	0.1	CN(C(=O)CSc1nnc(-c2ccncc2)n1Cc1ccccc1)C1CCS(=O)(=O)C1 (configuration not stated)
58	1.4	2.8	CCCN(CCC)S(=O)(=O)c1ccc(C(=O)Nc2nnc(-c3cccc(OC)c3)o2)cc1
59	0.43	-0.93	Cc1cc(NC(=O)CCS(=O)(=O)c2ccc3c(c2)NC(=O)C(C)S3)ccc1Br (configuration not stated)
60	0.1	0.3	COc1cc2c(cc1OC)CN(Cc1cc(=O)oc3cc(C)c(C)cc13)CC2

The last 3 entries of the part before lead into the next:
entry	KCNQ2 pot	KCNQ2 pot baseline	mol
58	1.4	2.8	CCCN(CCC)S(=O)(=O)c1ccc(C(=O)Nc2nnc(-c3cccc(OC)c3)o2)cc1
59	0.43	-0.93	Cc1cc(NC(=O)CCS(=O)(=O)c2ccc3c(c2)NC(=O)C(C)S3)ccc1Br (configuration not stated)
60	0.1	0.3	COc1cc2c(cc1OC)CN(Cc1cc(=O)oc3cc(C)c(C)cc13)CC2
61	0.79	0.43	O=C(COc1ncnc2ccccc12)N1CCOCC1
62	1.2	-0.6	CCc1c(C)[nH]c2c1C(=O)C(CN1CCOCC1)CC2 (configuration not stated)
63	0.49	-1.1	Cc1ccc(C(=O)Nc2nnc(S(=O)(=O)N3CCOCC3)s2)cc1
64	1.4	1	Cc1nc2nc(C)c(CCC(=O)NCc3ccc4c(c3)OCO4)c(C)n2n1
65	1.7	-0.06	CCN(CC)CCN(C)C(=O)CCc1nnc(-c2ccc(C)s2)o1
66	0.22	0.14	CCN(CC)S(=O)(=O)N1CCC(C(=O)NCc2ccc(C)cc2)CC1
67	1.3	0.52	Cc1ccc(S(=O)(=O)N2CC=C(C(=O)NC3CC3)CC2)cc1
68	1.7	4.2	Cc1ccc(CNC(=O)c2ccc(N3CCC4(CC3)CC(c3ccccc3)=NO4)c(NC(=O)c3cccc(C)c3)c2)cc1
69	0.72	-0.03	Cc1ccc2cc(CCNC(=O)C3CCCC3)c(=O)[nH]c2c1
70	0.85	1.9	O=C(Cn1nc(C(=O)O)c2ccccc2c1=O)Nc1cccc(Br)c1

entry	KCNQ2 pot	KCNQ2 pot baseline	mol
71	1	0.93	CCC(C)NC(=O)CNC(=S)N(Cc1ccccc1)Cc1cccnc1 (configuration not stated)
72	0.94	-0.03	CC(C)c1nc(CNC(=O)C2CCC(=O)N(CCc3cccc(F)c3)C2)cs1 (configuration not stated)
73	0.31	0.63	COc1cccc(CNC(=O)c2ccc(C(=O)NCc3cccc(OC)c3)cc2)c1
74	0.52	-0.03	C=CCOc1ccc(/C(O)=C2/C(=O)C(=O)N(CCCN3CCOCC3)C2c2ccccc2)cc1 (configuration not stated)
75	0.3	0.24	COc1ccc(-c2csc(-c3ccccc3)n2)c(OC)c1
76	2.1	-0.74	Cc1ccc(-c2c(C)sc3nc[nH]c(=O)c23)cc1C
77	0.71	-0.58	COCCn1c(SCc2nc3ccccc3c(=O)[nH]2)nc2ccccc2c1=O
78	0.22	0.03	CC1CCCN(S(=O)(=O)c2ccc(NC(=O)CNC3CCCC3)cc2)C1 (configuration not stated)
79	1.9	-0.8	COc1cccc(NC(=O)c2cc(C(=O)Nc3cccc(OC)c3)n(C)n2)c1
80	1.2	-0.11	COc1ccc(C2CC(=O)C(C=NCCN3CCNCC3)=C(O)C2)cc1OC (configuration not stated)

entry	KCNQ2 pot	KCNQ2 pot baseline	mol
81	0.06	1.1	Cc1nnsc1C(=O)N/N=C/c1ccc(OC(F)(F)F)cc1
82	0.27	0.16	O=S(=O)(Cc1ccccc1Cl)N1CCCCC1
83	2.8	-0.46	Cc1ccc(NS(=O)(=O)c2ccc(C(=O)N3CC(C)CC(C)C3)cc2)cc1 (configuration not stated)
84	0.5	0.79	Cc1noc(C)c1COc1ccc(C(=O)NNC(=O)c2ccccc2)cc1
85	2.1	1.4	O=C(Nc1cccnc1Cl)c1cccs1
86	0.77	-0.18	O=c1[nH]c(C2CCN(S(=O)(=O)c3ccc4c(c3)OCCO4)CC2)nc2c1nnn2Cc1ccccc1
87	0.25	-1.6	CC(=O)Nc1ccc(C2NC(=O)CCC2[N+](=O)[O-])cc1 (configuration not stated)
88	0.45	-1.8	O=C(COC(=O)c1c2c(nc3ccccc13)CCN(Cc1ccccc1)C2)Nc1c(F)cccc1F
89	1.1	-0.01	NNC(=O)CCn1nnc2ccccc21
90	0.63	-0.6	Cc1ccsc1C1NC(=O)c2c(sc3c2CCCC3)N1 (configuration not stated)

entry	KCNQ2 pot	KCNQ2 pot baseline	mol
91	1.2	-0.08	Cn1c(C(=O)O)ccc1S(=O)(=O)N1CCCCCC1
92	0.48	0.13	CC(=O)c1cccc(NC(=O)CSc2nc(C3CC3)nc3ccccc23)c1
93	0.06	0.44	S=C(Nc1ccccc1)N1CCN(c2ccccn2)CC1
94	1.5	-0.03	Cc1cc2cc(CNC(=O)Nc3ccc(Cl)c(Cl)c3)ccc2n1C
95	0.04	0.37	COc1cc(OC)cc(C(=O)NNC(=O)c2cc3c(s2)CCCC3)c1
96	0.12	0.7	COc1ccc(CC(=O)Oc2ccc(C#N)cc2)cc1
97	8.6*	0.05*	COc1ccc(NC(=O)C(=O)NNC(=O)c2cccs2)c(OC)c1
98	0.07	0.45	COc1ccnc2c1c(=O)n(Cc1cccc(Cl)c1)c(=O)n2C
99	0.07	-0.92	COc1ccc(N2CCN(C(CNC(=O)C(=O)NCc3ccc4c(c3)OCO4)c3ccco3)CC2)cc1 (configuration not stated)
100	2.3	1.1	CCCc1ccc(C(=O)NNc2cccc(C)c2)cc1

entry	KCNQ2 pot	KCNQ2 pot baseline	mol
101	1	-0.1	COc1cccc(/C=N/Nc2nc3ccccc3n3cnnc23)c1
102	0.16	-0.14	CCN(CC)C(=O)c1ccc(S(=O)(=O)NCc2cccnc2)cc1
103	1.6	-0.75	CCc1nnc(NS(=O)(=O)c2ccc(N/C=C(\C=O)c3nc4cc(Cl)ccc4o3)cc2)s1
104	1.2	0.13	O=C(CCC(=O)N/N=C/c1ccccc1O)NCc1ccccc1
105	0.38	-2.2	CC(C)(C)c1nc(CN2CCCCC2)cc(CN2CCCCC2)c1O
106	0.76	-0.24	CCCC(=O)NC(=S)Nc1ccccc1OC
107	0.32	0.49	CCCNS(=O)(=O)c1ccc(N2CCCC2=O)c([N+](=O)[O-])c1
108	0.3	0.4	Nc1nc(-c2cc3ccccc3o2)cs1

Given in markdown: part of the list above
| no. | canonical_smiles | KCNQ2 pot | KCNQ2 pot baseline |
| --- | --- | --- | --- |
| 102 | CCN(CC)C(=O)c1ccc(S(=O)(=O)NCc2cccnc2)cc1 | 0.16 | -0.14 |
| 103 | CCc1nnc(NS(=O)(=O)c2ccc(N/C=C(\C=O)c3nc4cc(Cl)ccc4o3)cc2)s1 | 1.6 | -0.75 |
| 107 | CCCNS(=O)(=O)c1ccc(N2CCCC2=O)c([N+](=O)[O-])c1 | 0.32 | 0.49 |
| 105 | CC(C)(C)c1nc(CN2CCCCC2)cc(CN2CCCCC2)c1O | 0.38 | -2.2 |
| 101 | COc1cccc(/C=N/Nc2nc3ccccc3n3cnnc23)c1 | 1 | -0.1 |

Whole records, looked up by structure. Screens in order: KCNQ2 pot, KCNQ2 pot baseline
Nc1nc(-c2cc3ccccc3o2)cs1 reads 0.3, 0.4
CCN(CC)C(=O)c1ccc(S(=O)(=O)NCc2cccnc2)cc1 reads 0.16, -0.14
CCCC(=O)NC(=S)Nc1ccccc1OC reads 0.76, -0.24
CCCNS(=O)(=O)c1ccc(N2CCCC2=O)c([N+](=O)[O-])c1 reads 0.32, 0.49
COc1cccc(/C=N/Nc2nc3ccccc3n3cnnc23)c1 reads 1, -0.1
